Bioassay records deposited in PubChem by National Center for Advancing Translational Sciences (NCATS).
Menin MLL FP FL = qHTS Assay for Inhibitors Targeting the Menin-MLL Interaction in MLL Related Leukemias: Competition With Fluorescein Labeled MLL-derived Peptide; Fluorescence polarization, fluorescein-MLL peptide displacement from menin; FP activity change, % at 61.4 µM; 290,000 tested, under 10 active; inconclusive = falling polarisation curve, or a change in total fluorescence; inactive = total fluorescence flat and polarisation flat or rising; no compound was filed as active; the % refers to the polarisation; negative = inhibition;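 note: % of control where 0% means no effect; inhibitors lower the polarisation; unlabelled MLL peptide was the positive control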
D2 ag = Beta-Arrestin HTS for Positive Allosteric Modulators of the Human D2 Dopamine Receptor: Agonists; activation, % (concentration not given with the values); 360,000 compounds, 0.084% hits; D(2) dopamine receptor (Homo sapiens), P14416; DiscoveRx PathHunter D2 beta-arrestin, luminescence, 90 min; 100% = 57 uM dopamine signal; in the data active = activation above about 40%; inconclusive = about 15% to 40%; inactive = below about 15%; note: the text of the record calls up to 30% inactive
Target sequence (P14416 whole entry, looked up): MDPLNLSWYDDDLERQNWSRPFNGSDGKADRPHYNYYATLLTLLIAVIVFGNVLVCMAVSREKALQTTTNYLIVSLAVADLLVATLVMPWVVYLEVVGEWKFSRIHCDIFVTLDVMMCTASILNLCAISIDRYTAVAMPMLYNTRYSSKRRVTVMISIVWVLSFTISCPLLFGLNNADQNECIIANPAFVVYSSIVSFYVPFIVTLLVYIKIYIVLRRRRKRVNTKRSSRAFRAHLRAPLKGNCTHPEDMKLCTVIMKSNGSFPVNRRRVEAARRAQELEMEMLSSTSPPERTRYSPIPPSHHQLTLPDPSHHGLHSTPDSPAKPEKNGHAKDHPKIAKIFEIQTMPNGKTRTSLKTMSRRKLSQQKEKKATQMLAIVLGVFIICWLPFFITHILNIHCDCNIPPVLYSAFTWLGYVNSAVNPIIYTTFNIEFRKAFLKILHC
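Agonist mode: compounds alone added to overnight-plated D2 PathHunter cells for 90 min at 37 C, with 57 uM final dopamine (EC100) defining full response. Beta-arrestin recruitment detected by chemiluminescent reagent, read after 1 h at ambient temperature.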
gsp antagonist = qHTS for Antagonists of gsp, the Etiologic Mutation Responsible for Fibrous Dysplasia/McCune-Albright Syndrome: qHTS; gsp-mutant cells, cAMP HTRF, 30 min; control for the full effect not named in the record; Potency, µM (top dose mostly 76.9 µM), inactives show at the top dose activity change, negative = inhibition, most hits filed as inhibitors; 340,000 compounds, 0.4% hits; active = falling curve of any shape with a large fitted effect; inconclusive = falling curve, mostly with a smaller effect; inactive = flat or rising curve; cell line not stated here;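 note: intracellular cAMP measured with PDE inhibitor Ro 20-1724 present during compound exposure; potency is the fitted concentration of half-maximal effect; % is set by controls: 0 for no effect and ±100 for the full control effect; nearly all actives have a fitted effect of over 65% in size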
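HTRF cAMP read-out (cAMP-d2 plus anti-cAMP antibody-K in lysis buffer, 30 min RT). Before lysis, cells are exposed to compounds with […] for 30 min at 37C in DPBS containing Ca/Mg, BSA and Tween 20.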
ClpP mod = qHTS Assay for Activators of ClpP; ATP-dependent Clp protease proteolytic subunit (Bacillus subtilis (strain 168)), P80244; purified B. subtilis ClpP, FRET peptide cleavage, 20 min; Potency, µM (series often up to 57.5 µM), inactives show at the highest dose activity change, negative = active; 340,000 compounds, 1.9% hits; AID 651965, 2013; active = well fitted falling curve with a large enough effect; inconclusive = small, poorly fitted or top-dose-only effect; inactive = no such curve, though single readings can be large or run the other way; note: potency is the fitted concentration of half-maximal effect; the source files actives as falling curves though it sought activators and does not explain the sign; nearly all actives have a fitted effect of over 65% in size; many hits overshoot -100%
Target sequence (P80244 whole entry, looked up): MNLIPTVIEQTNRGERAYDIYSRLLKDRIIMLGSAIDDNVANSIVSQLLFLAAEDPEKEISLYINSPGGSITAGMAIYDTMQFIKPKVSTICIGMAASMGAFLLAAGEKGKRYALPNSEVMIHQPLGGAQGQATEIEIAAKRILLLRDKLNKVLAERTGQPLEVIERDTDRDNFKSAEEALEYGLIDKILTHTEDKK
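FRET quenching reversal measured ClpP activation: 10 microg/mL B. subtilis ClpP at pH 8 with the FRET-FV decapeptide, read at 430 nm after 320 nm excitation. The 20-min minus 0-min signal was scaled between DMSO/no-enzyme wells and ADEP (5.8 microM final).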
PINK1 expr mod = A Quantitative High throughput Screen to Identify Chemical Modulators of PINK1 Expression; PINK1 immunofluorescence, high-content cytometry, 24 h; 410,000 compounds, 0.2% hits; Potency, µM (top dose mostly 76.6 µM), without a hit: at the highest dose activation (PINK1 increase), hits mostly activators; active = well fitted activation curve with a large enough effect; inconclusive = small, poorly fitted or top-dose-only effect; inactive = flat fitted curve, though single readings scatter; cell line not stated here;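 note: potency is the fitted concentration of half-maximal effect; % of control where 0% means no effect; nearly all actives have a fitted effect of over 65% in size; a mitochondrial uncoupler was the plate control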
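Compound titrations (5 concentrations, 24 h) on a stable cell line; DMSO and CCCP controls. Endpoint: fixed-cell PINK1 immunofluorescence with mitochondrial, cell and nuclear markers, scanned by microplate cytometer.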
Sfp inh = qHTS Assay for Inhibitors of Bacillus subtilis Sfp phosphopantetheinyl transferase (PPTase). 310,000 compounds, 3.5% hits. AID 1490, 2009. 4'-phosphopantetheinyl transferase ffp (Bacillus subtilis), Q9F4F7. Potency, µM, for inactives: max response, negative = inhibition, hits mostly inhibitors. Biochemical Sfp PPTase activity, qHTS; active = well fitted inhibition curve with a large enough effect; inconclusive = small, poorly fitted or top-dose-only effect, or another doubt; inactive = no such curve, though single readings can be large or run the other way;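 note: the enzyme is Sfp with the accession as filed and its product quenches rhodamine fluorescence; potency is the fitted concentration of half-maximal effect; 0% = enzyme reaction without inhibitor and -100% = no enzyme wells; top concentration of the series not given in the record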
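With Hepes-Na pH 7.6 buffer containing 10 mM MgCl2, Sfp (15 nM) modified BHQ-2-YbbR (12.5 uM) using rhodamine-CoA (5 uM). Two reads 30 minutes apart at 525/598 nm yielded each well's rate.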
gsp ag = qHTS for Agonist of gsp, the Etiologic Mutation Responsible for Fibrous Dysplasia/McCune-Albright Syndrome: qHTS; gsp mutant cells, cAMP HTRF, 30 min; control for the full effect not named in the record; Potency, µM (doses to about 76.9 µM), for the others: top-dose activation (cAMP increase), actives largely listed as activators; 340,000 compounds, 0.13% hits; AID 624287, 2012; active = well fitted activation curve with a large enough effect; inconclusive = small, poorly fitted or top-dose-only effect, or another doubt; inactive = no such curve, though single readings can be large or run the other way; cell line not stated here;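 note: phosphodiesterase inhibitor Ro 20-1724 added with compounds to block cAMP breakdown; potency is the fitted concentration of half-maximal effect; nearly all actives have a fitted effect of over 60% in size; about a fifth of the inactives were tested at one dose only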
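Cells stably selected in G418 were plated at 2000/well, grown 16-24 hr, then given compounds in DMSO with the PDE inhibitor […] (300 uM solution added) for 30 min at 37C; cAMP was read by HTRF.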
An asterisk follows results filed as active; ? = inconclusive; nt = not tested or not shown; & = joins results of further samples; [ ] = another dose, or the depositor's remark. Compounds as they come; about 5.1% have a hit in one of these screens.

structure | Menin MLL FP FL | D2 ag | gsp antagonist | ClpP mod | PINK1 expr mod | Sfp inh | gsp ag
Cn1c(=O)n(C)c2cc(NC(=O)COc3ccc(Cl)cc3)ccc21 | 0.3 | 1.2 | -18% | nt | 2.8% | -1% | -19%
CC1(C)CC(=O)C=C(N=CC2=C(O)CC(C)(C)CC2=O)C1 | 4.6 | 3.1 | 9% | -1.7% | -0.5% | -10% | -2%
CCOc1cc(NC(=O)c2cccs2)c(OCC)cc1NC(=O)CCC(=O)NCc1ccccn1 | 2.3 | -1.8 | -8% | 0.8% | -0.1% | -13% | 5%
CCN(CC)Cc1ccccc1Sc1ccccc1 | 4.2 | -6.3 | 3% | nt | 5.5% | 9% | 1%[15.4 µM]
Cc1ccccc1C(=O)NC(=S)N(Cc1ccccc1)c1ccccn1 | nt | 5.6 | 3% | -5.4% | 1.6% | nt | -24%
C=CCNC(=O)/C(C#N)=C/c1ccc(OS(=O)(=O)c2ccc(C)cc2)c(OC)c1 | 2.4 | 2.4 | 6% | -16% | -3.8% | -2% | -1%
COc1cccc(OC2OC3COC(C)(C)OC3C(O)C2NC(C)=O)c1 (centres undefined) | -1.9 | -2.8 | 11% | nt | -0.5% | 14% | 17%
Cc1ccc(S(=O)(=O)Nc2ccncc2)c(C)c1N(C)S(=O)(=O)c1ccc(Cl)cc1 | 7.6 | 0.1 | 6% | -2.2% | -1.0% | 11% | -6%
CC1CCN(S(=O)(=O)c2ccc(C(=O)NCc3cccnc3)cc2)CC1 | 1.0 | -6.5 | -3% | 0.6% | 2.8% | 20% | 16%[15.4 µM]
CN(C)c1cccc(NC2=CC(=[N+]3CCOCC3)CC(C)(C)C2)c1 | -5.4 | -2.0 | -8% | 1.2% | -5.0% | -1% | 12%
O=C(COC(=O)Cc1c(F)cccc1Cl)Nc1nnc(-c2ccccc2)o1 | nt | -0.4 | 3% | -1.0% | -1.2% | nt | 3%
CCN(CC)C(=O)c1sc2nc(-c3ccccn3)[nH]c(=O)c2c1C | nt | 0.0 | -9% | nt | 0.3% | nt | -15%[15.4 µM]
COC(=O)c1ccccc1S(=O)(=O)N1CCC(C(=O)OC(C)C(=O)Nc2ccc(NC(C)=O)cc2)CC1 (centres undefined) | nt | -0.2 | 1% | -2.5% | 0.6% | 8% | 1%
COc1ccc(CNC(=O)c2ccc[nH]2)cc1Cl | 4.1 | -2.3 | 11% | -1.4% | 2.2% | 17% | 0%[15.4 µM]
O=C(CSc1nc(COc2ccccc2)nc2ccccc12)NC1CCCC1 | 0.5 | 2.0 | -10% | nt | 0.7% | 19% | -14%[15.4 µM]
CCOC(=O)NNC(=S)Nc1c(C)n(C)n(-c2ccccc2)c1=O | 2.9 | -2.6 | -7% | nt | 1.1% | -18% | 5%[15.4 µM]
NC(=O)c1ccc(-c2csnn2)cc1 | 0.1 | 0.4 | 4% | -3.8% | -0.6% | 3% | -12%[15.4 µM]
COc1cccc(NC2=Nc3cccc4cccc2c34)c1 | 20 | -4.6 | -7% | -2.8% | -0.3% | 7% | ?
CN1CCN(C(=O)CNC(=O)Cc2ccc(Cl)cc2)CC1 | 0.8 | 5.6 | 7% | nt | -0.8% | 24% | -56%[inhibitor]
O=C(c1cccc(S(=O)(=O)N2CCCC2)c1)N1CCN(c2ncccn2)CC1 | 0.6 | -3.1 | 15% | -0.3% | -1.2% | 2% | 13%[15.4 µM]
CN(C1CCCCC1)S(=O)(=O)c1ccc(C(=O)Nc2sc3c(c2C(N)=O)CC(C)(C)NC3(C)C)cc1 | 2.5 | -2.7 | ? | 4.8%&5.1% | 6.1%&2.9% | -5% | ?
Cc1cc(Cl)c(S(=O)(=O)N2CCN(c3ccccc3)CC2)cc1OCC(N)=O | 4.2 | 3.7 | 15% | 0.6% | 0.5% | -1% | 11%
CCC(Sc1nc2ncccc2[nH]1)C(=O)N1CCOCC1 (centres undefined) | 2.2 | -2.6 | 5% | -2.4% | 0.2% | 3% | 1%
CC(O)CNc1cnccn1 (centres undefined) | 2.3 | -1.3 | 10% | nt | 0.0% | 11% | 19%
O=C(CN1CCCC1)Nc1ccccc1Cl | -0.2 | -0.4 | -1% | -0.7% | -3.2%[38.3 µM] | 10% | -1%
COc1ccc(CCNS(=O)(=O)CCNC(=O)c2ccccc2)cc1 | nt | -1.1 | -1% | -0.5% | -6.9% | nt | 10%
O=C(CSc1nnc(NC(=O)c2ccc3c(c2)OCO3)s1)NCc1ccco1 | 0.4 | -0.1 | 5% | 4.5µM* | -0.5% | 8% | 0%[15.4 µM]
Cc1ccc(NC(=O)CCc2c(C)nn(-c3ccc(N4CCCCC4)nn3)c2C)cc1 | ? | -3.8 | 1% | 0.4% | 0.3% | 13% | 27%
O=C(O)c1ccc(-c2ccccc2Cl)o1 | 3.3 | -0.1 | -9% | -6.3% | 0.3% | -7%&-30% | 22%
COC(=O)c1cccc(C#CC(NP(=O)(c2ccccc2)c2ccccc2)c2ccccc2)c1 (centres undefined) | 0.9&0.7 | -2.4 | -19% | -2.9% | 11% | -6%&-8% | nt
CC(CNc1nc2ccccc2n2cnnc12)c1ccccc1 (centres undefined) | 12 | 1.2 | -5% | ? | -1.4% | 13% | 15%
Cc1cc(C(C)(C)C)oc1C(=O)N(CC(=O)NC1CCCC1)c1ccc(F)cc1 | 2.8 | -0.1 | -4% | 2.0% | -1.8%[38.3 µM] | 20% | -31%[inhibitor]
C/C(=N\N=C1\NC(=O)C(CC(=O)Nc2ccc(Cl)cc2)S1)c1ccco1 (centres undefined) | -4.1 | -0.3 | -22% | nt | 7.1% | -6% | 6%[15.4 µM]
CN(C)CCCNC(=O)C[C@H]1C[C@H](C(=O)N2CCOCC2)[C@@]2(C)c3[nH]c4cc(CCC(=O)N(C)C)ccc4c3CCN2C1=O | nt | -1.5 | 7% | -14% | 1.3% | nt | nt
O=[N+]([O-])c1ccc(N2CCN(c3ccc([N+](=O)[O-])cc3CO)CC2)c(CO)c1 | -12 | 8.5 | ? | 0.2% | 4.6% | 3% | 0%
COC(=O)c1cccc(C23CC4(C2)[C@H](CN(C)[C@@H]4c2ccccc2)C3c2ccc(C(F)(F)F)cc2)c1 (some centres undefined) | 9.5&3.6 | -2.2 | 10% | -2.3% | 14% | 0%&-11% | -99%[inhibitor]
Cc1cc(/C=N/Nc2ccc([N+](=O)[O-])cn2)c(C)n1-c1ccc(C(=O)O)cc1 | ? | -4.4 | ? | nt | 2.3% | 56µM* | -1%[15.4 µM]
Cc1ccc(C(=O)CSc2nnc(-c3ccccc3)n2-c2ccccc2)o1 | -3.8 | -2.6 | -7% | 0.2% | 5.5%[38.3 µM] | 4% | ?
CC1CCN(S(=O)(=O)c2cccc(S(=O)(=O)N3CCCC3)c2)CC1 | nt | -1.8 | -4% | nt | 2.2% | 7% | -1%[15.4 µM]
Cc1ccccc1N=C1SCCN1C(=O)CN1C(=O)NC2(CCCC2)C1=O | nt | -1.6 | 4% | ? | 1.3% | nt | -16%
Cc1ccccc1Cn1c(C)c(C(=O)NCC(C)C)sc1=O | nt | -2.5 | nt | 0.7% | -0.8% | nt | nt
O=c1cnc2cncnc2n1Cc1ccccc1 | ? | nt | nt | nt | 7.2% | 8% | nt
CC(C)c1ccccc1NC(=O)CCc1nc2ccccc2s1 | 1.3 | -4.2 | 9% | 3.2% | 1.4% | ? | -13%
COc1ccccc1C(=O)NCc1nnc(SCC(=O)Nc2nccs2)n1C | -0.1 | 1.2 | -4% | nt | 0.7% | 3% | 13%
Cc1[nH]n(-c2ccccc2)c(=O)c1C(=O)c1ccc([N+](=O)[O-])cc1 | 0.4 | -4.3 | -25% | nt | 1.6% | 10% | -4%[15.4 µM]
Cc1ccc(S(=O)(=O)c2c(O)c3ccc(C(=O)O)cc3[nH]c2=O)cc1 | 4.8 | -3.8 | 11% | -15% | 5.0% | 17% | ?
COCCn1c(SCC(=O)Nc2cccc(F)c2)nc2c(c1=O)SCC2 | nt | -0.2 | -23% | 1.3% | 0.2% | -1% | -1%
Cc1ccccc1C(=O)NNC(=S)NC(=O)c1ccccc1 | -0.3 | 1.3 | 0% | -2.6% | 2.0% | -35% | 1%
COCC(=O)N1CCC2(CC1)CN(Cc1cc(C(F)(F)F)cc(C(F)(F)F)c1)C2 | -0.3 | nt | nt | nt | 0.6% | -5% | nt
Cc1ccc(NC(=O)c2cc(S(=O)(=O)N3CCCCC3)ccc2N2CCOCC2)cc1S(=O)(=O)N(C)C | nt | -0.5 | -11% | -12% | -0.3% | nt | 26%
COc1ccc(S(=O)(=O)N(C)C[C@H]2Oc3c(NC(=O)Nc4c(C)noc4C)cccc3C(=O)N([C@@H](C)CO)C[C@H]2C)cc1 | nt | -1.2 | -6% | -13% | 1.0% | nt | nt
O=C(CSc1nc2ccccc2n1S(=O)(=O)c1cccc([N+](=O)[O-])c1)NCCc1ccccc1 | 1.0 | 7.1 | -10% | -1.0% | 12% | 13% | -25%
Cc1nnc2c(N(C)S(=O)(=O)c3ccccc3)nc3ccccc3n12 | nt | -2.1 | 17% | -5.1% | 0.0% | 24% | ?
